Rce1 inhib – inhibitors of yeast Ras-converting enzyme; Q03530; actives 0.27% (n = 290,000); calls only; yeast membranes, quenched prenylated peptide cleavage fluorescence;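 active = fall in fluorescence gain of 50% or more versus controls, with final raw signal at or below 3038400; inconclusive = same 50% fall but final raw signal above 3038400; inactive = fall in fluorescence gain under 50%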;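 note: plate controls were neutral control wells for no effect and wells lacking membranes for full effect; tested at 10 µM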
eIF4H FP inh – inhibitors of RNA binding by human eIF4H; Q15056; actives 0.94% (n = 290,000); eIF4H fluorescence polarization binding assay; inhibition, % at 35 µM;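 active = 50% or more with normal probe brightness, or confirmed in later tests; inconclusive = above 50% with abnormal brightness, or retests that disagree; inactive = below 50% or failed in later tests; about a fifth of its hits are not listed in these tables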;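 note: calls also rest on retests at 20 µM and on dose response follow-up; 0% = protein and probe with vehicle and 100% = probe without protein; strong numbers were not always called active; many hits fall short of the cut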
UUG fidelity – yeast start codon fidelity modulation; S. cerevisiae UUG-firefly luciferase reporter, luminescence/redox ratio; AID 602363; activity score, % at 18.7 µM; actives 0.13% (n = 350,000);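 active = replicate mean at a twofold rise or more, about +100% in these data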;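 note: firefly luciferase made from a UUG start codon reports start codon fidelity; reporter light over untreated wells divided by growth signal over untreated wells; some hits fall short of that in this replicate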
CSC inhib – cancer stem cell inhibition | AID 2717 | actives 1.1% (n = 300,000) | inhibition, % at 7.5 µM | cancer stem cell-like cells viability, luminescence;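 active = mean at 75% or more and at least half the replicates too; inconclusive = mean and replicates disagree; tested in HMLE shEcad cells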;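 note: 0% = median of negative and 100% = median of positive control wells; the first replicate is given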
MT1-MMP act inh – blocks activation of human MT1-MMP; P50281; HT1080 RFP-PRO-GFP cells, GFP/RFP ratio fluorescence, overnight; percent of plate control window, DMSO zero; GFP/RFP ratio change, % at 20 µM; actives 0.061% (n = 360,000);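 active = GFP/RFP ratio change of at least 30% with cell ATP level not reduced by more than half and red fluorescence within 50% of control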; note: strong numbers were not always called active
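Assay system: HT1080 RFP-PRO-GFP cells | Dosing: 20 µM single dose, 1% DMSO | Incubation: Cells overnight before dosing, compound overnight, 37 °C, 5% CO2 | Evaluation: GFP/RFP fluorescence ratio | Control set: DMSO-only wells and HT1080 RFP-L50D-GFP cell wells as references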
PABP polyA inh – blocks human PABP binding to poly(A) RNA. fluorescence polarization. inhibition, % at 35 µM. actives 1% (n = 290,000);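 active = 50% or more with normal probe brightness, or confirmed in later tests; inconclusive = above 50% with abnormal brightness, or retests that disagree; inactive = below 50% or failed in later tests; about a fifth of its hits are not listed in these tables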;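 note: calls also rest on retests at 20 µM and on dose response follow-up; controls were probe without protein and protein plus probe with vehicle; some compounds called inactive have numbers as strong as hits; many hits fall short of the cut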
Target sequence (P11940 whole entry, looked up): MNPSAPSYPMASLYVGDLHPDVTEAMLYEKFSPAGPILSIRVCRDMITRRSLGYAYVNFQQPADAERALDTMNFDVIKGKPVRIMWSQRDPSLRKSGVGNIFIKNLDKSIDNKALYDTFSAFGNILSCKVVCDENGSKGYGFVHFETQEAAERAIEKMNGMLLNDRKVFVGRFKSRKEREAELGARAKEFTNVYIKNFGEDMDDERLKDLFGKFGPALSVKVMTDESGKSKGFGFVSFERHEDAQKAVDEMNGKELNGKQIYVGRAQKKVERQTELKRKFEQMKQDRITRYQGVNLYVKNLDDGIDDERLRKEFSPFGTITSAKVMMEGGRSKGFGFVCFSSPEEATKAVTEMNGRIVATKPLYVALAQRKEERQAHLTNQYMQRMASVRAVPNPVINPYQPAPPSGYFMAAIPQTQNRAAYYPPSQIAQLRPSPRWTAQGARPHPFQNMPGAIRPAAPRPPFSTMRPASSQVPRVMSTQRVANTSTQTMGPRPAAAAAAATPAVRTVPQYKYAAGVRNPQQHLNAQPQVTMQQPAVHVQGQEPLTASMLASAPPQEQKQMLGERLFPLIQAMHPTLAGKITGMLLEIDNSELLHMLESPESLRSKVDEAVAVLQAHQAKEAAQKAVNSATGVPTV
Env fusion inh – HIV envelope-mediated fusion inhibition | HeLa-JRFL Env/CEM21 cell fusion, luciferase | inhibition, % at 12.3 µM | actives 1.1% (n = 360,000) | AID 651610;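 active = mean replicate inhibition score of at least 50 and every replicate individually at or above 50; inconclusive = only one of the two criteria met; inactive = mean below 50 and not all replicates reaching 50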;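 note: 0% = plate neutral controls and 100% = maraviroc near 300 nM; one replicate is shown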
MT1-MMP act inh RFP – also measured in MT1-MMP act inh; calls as there; RFP signal change, %; measured here: RFP expression control read;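 0 = vehicle wells; hits needed this value within 50% of zero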
An asterisk follows results filed as active. Only part of the results is shown, so the mix of outcomes need not match the whole.

What do the screens show for `CC(=O)NC(CC(=O)Nc1nc(-c2ccc(N(C)S(C)(=O)=O)cc2)cs1)c1ccccc1` (centres undefined)?
Rce1 inhib: inactive; eIF4H FP inh: 4; UUG fidelity: -12; CSC inhib: 11; MT1-MMP act inh: -4; PABP polyA inh: 1; Env fusion inh: -2; MT1-MMP act inh RFP: -24

How did OCC(O)C1OC(Nc2ccc(Br)cc2)C(O)C1O (centres undefined) do in these assays?
Rce1 inhib: inactive; eIF4H FP inh: -6; CSC inhib: 13; MT1-MMP act inh: -6; PABP polyA inh: 2; Env fusion inh: 15; MT1-MMP act inh RFP: -3

What do the screens show for `CCN(CC(=O)Nc1ccccc1OC)C(=O)COc1ccc2ccccc2c1`?
Rce1 inhib: inactive; eIF4H FP inh: 15; UUG fidelity: 10; CSC inhib: -7; MT1-MMP act inh: 1; PABP polyA inh: 10; Env fusion inh: 17; MT1-MMP act inh RFP: -1

What do the screens show for `CCCc1nnc(NC(=O)CSc2ncn[nH]2)s1`?
Rce1 inhib: inactive; eIF4H FP inh: 10; UUG fidelity: -20; CSC inhib: -9; MT1-MMP act inh: 3; PABP polyA inh: 6; MT1-MMP act inh RFP: 1

Results for Nc1cc(=O)[nH]c(SCC(=O)Nc2nnc(-c3ccccc3)s2)n1 ?
Rce1 inhib: inactive; eIF4H FP inh: 4; MT1-MMP act inh: 2; PABP polyA inh: 5; Env fusion inh: 1; MT1-MMP act inh RFP: 1

Results for O=C(OCCCc1cc2ccccc2c(=O)o1)c1ccc2c(c1)OCO2 ?
UUG fidelity: -13; CSC inhib: 1; MT1-MMP act inh: 0; Env fusion inh: -7; MT1-MMP act inh RFP: 0

What do the screens show for `COCCNC(=O)/C(C#N)=C/c1ccc(OC(=O)c2cccs2)c(OC)c1`?
Rce1 inhib: inactive; eIF4H FP inh: 14; MT1-MMP act inh: -6; PABP polyA inh: -10; Env fusion inh: 13; MT1-MMP act inh RFP: -4

How did N=c1c(C(=O)NCC2CCCO2)cc2c(=O)n3ccccc3nc2n1Cc1ccc(Cl)cc1 (centres undefined) do in these assays?
Rce1 inhib: inactive; eIF4H FP inh: -2; UUG fidelity: 5; CSC inhib: -9; MT1-MMP act inh: -2; PABP polyA inh: 1; Env fusion inh: -8; MT1-MMP act inh RFP: -2

Results for Cc1c(OCC(=O)Nc2cccnc2)ccc2c3c(c(=O)oc12)CCC3 ?
Rce1 inhib: inactive; eIF4H FP inh: -2; UUG fidelity: -8; CSC inhib: 0; MT1-MMP act inh: 2; PABP polyA inh: 11; Env fusion inh: -43; MT1-MMP act inh RFP: -1

What do the screens show for `Cc1ncoc1C(=O)Nc1ccccc1C(N)=O`?
Rce1 inhib: inactive; eIF4H FP inh: -2; UUG fidelity: -14; CSC inhib: -12; MT1-MMP act inh: 1; PABP polyA inh: 11; Env fusion inh: -49; MT1-MMP act inh RFP: 1

Results for CCc1nc2c(OCCn3cccc3)cccn2c1N(C=O)Cc1ccc(OC)cc1 ?
UUG fidelity: -14; MT1-MMP act inh: -8; Env fusion inh: -3; MT1-MMP act inh RFP: -1

Results for Cc1ccc2onc(CC(=O)O)c2c1 ?
Rce1 inhib: inactive; eIF4H FP inh: 1; CSC inhib: -9; MT1-MMP act inh: 2; PABP polyA inh: -4; MT1-MMP act inh RFP: 4

How did O=S(=O)(c1ccc(F)cc1)N1CCC2(CC1)OCCN2S(=O)(=O)c1cccs1 do in these assays?
Rce1 inhib: inactive; UUG fidelity: -13; CSC inhib: 0; MT1-MMP act inh: -1; MT1-MMP act inh RFP: -8

Results for CCOc1ccccc1NC(=O)CCCn1cc([N+](=O)[O-])cn1 ?
Rce1 inhib: inactive; eIF4H FP inh: -5; UUG fidelity: 5; CSC inhib: -8; MT1-MMP act inh: 1; PABP polyA inh: 4; Env fusion inh: 19; MT1-MMP act inh RFP: 1

What do the screens show for `O=C(OCc1ccc(F)cc1)c1cccnc1Cl`?
eIF4H FP inh: -15; UUG fidelity: -20; CSC inhib: -8; MT1-MMP act inh: -2; PABP polyA inh: 2; Env fusion inh: -3; MT1-MMP act inh RFP: -1

What do the screens show for `COc1ccc(/C(N)=N/OC(=O)CN(C)S(=O)(=O)c2ccccc2)cc1`?
eIF4H FP inh: -1; MT1-MMP act inh: 3; PABP polyA inh: -14; Env fusion inh: -14; MT1-MMP act inh RFP: -1

What do the screens show for `OCC1(Cc2ccccc2)CCN(Cc2cnc(-c3ccc(Cl)cc3)nc2)CC1`?
Rce1 inhib: inactive; eIF4H FP inh: -5; UUG fidelity: -2; CSC inhib: 33; MT1-MMP act inh: -7; PABP polyA inh: -6; Env fusion inh: 14; MT1-MMP act inh RFP: -25

Results for Cc1cc(C)c(C)c(S(=O)(=O)N2CCC(C(=O)NCc3cccs3)CC2)c1C ?
UUG fidelity: -8; MT1-MMP act inh: -6; Env fusion inh: -10; MT1-MMP act inh RFP: 0

What do the screens show for `CC(=O)Oc1oc(-c2ccccc2)nc1C=Nc1ccccc1`?
Rce1 inhib: inactive; eIF4H FP inh: -8; CSC inhib: -2; MT1-MMP act inh: 0; PABP polyA inh: 3; MT1-MMP act inh RFP: 3

How did CCNC(=O)C1Cc2cc(S(=O)(=O)N3CCCC3)ccc2N1C(C)=O (centres undefined) do in these assays?
Rce1 inhib: inactive; eIF4H FP inh: -5; UUG fidelity: -13; CSC inhib: -5; MT1-MMP act inh: 2; PABP polyA inh: -1; Env fusion inh: 4; MT1-MMP act inh RFP: 6

What do the screens show for `CNS(=O)(=O)c1ccc(NC(=O)C2c3ccccc3Oc3ccccc32)cc1`?
Rce1 inhib: inactive; eIF4H FP inh: 5; CSC inhib: -7; MT1-MMP act inh: 8; PABP polyA inh: 0; MT1-MMP act inh RFP: -1

What do the screens show for `CN(C(=O)CSc1nnc2ccccn12)C1CCS(=O)(=O)C1` (centres undefined)?
Rce1 inhib: inactive; eIF4H FP inh: -7; UUG fidelity: -16; CSC inhib: -6; MT1-MMP act inh: 0; PABP polyA inh: -4; MT1-MMP act inh RFP: 7

How did CCOC(=O)Cn1cc(C(=O)C(=O)N2CCOCC2)c2ccccc21 do in these assays?
Rce1 inhib: inactive; eIF4H FP inh: -14; UUG fidelity: -14; CSC inhib: -3; MT1-MMP act inh: 0; PABP polyA inh: 4; Env fusion inh: -11; MT1-MMP act inh RFP: 4

What do the screens show for `Cc1ccc(C(=O)NCC(=O)OCC(=O)Nc2cccc(S(=O)(=O)N3CCCC3)c2)cc1C`?
Rce1 inhib: inactive; eIF4H FP inh: -8; UUG fidelity: -24; CSC inhib: 1; MT1-MMP act inh: -2; PABP polyA inh: -6; Env fusion inh: 5; MT1-MMP act inh RFP: -4

Next section; it opens with the 3 that closed the last part.
What do the screens show for `CN(C(=O)CSc1nnc2ccccn12)C1CCS(=O)(=O)C1` (centres undefined)?
Rce1 inhib: inactive; eIF4H FP inh: -7; UUG fidelity: -16; CSC inhib: -6; MT1-MMP act inh: 0; PABP polyA inh: -4; MT1-MMP act inh RFP: 7

How did CCOC(=O)Cn1cc(C(=O)C(=O)N2CCOCC2)c2ccccc21 do in these assays?
Rce1 inhib: inactive; eIF4H FP inh: -14; UUG fidelity: -14; CSC inhib: -3; MT1-MMP act inh: 0; PABP polyA inh: 4; Env fusion inh: -11; MT1-MMP act inh RFP: 4

What do the screens show for `Cc1ccc(C(=O)NCC(=O)OCC(=O)Nc2cccc(S(=O)(=O)N3CCCC3)c2)cc1C`?
Rce1 inhib: inactive; eIF4H FP inh: -8; UUG fidelity: -24; CSC inhib: 1; MT1-MMP act inh: -2; PABP polyA inh: -6; Env fusion inh: 5; MT1-MMP act inh RFP: -4

Results for O=c1c(-n2cncn2)c[nH]n1-c1cccc(Cl)n1 ?
Rce1 inhib: inactive; eIF4H FP inh: -6; CSC inhib: -3; MT1-MMP act inh: -5; PABP polyA inh: -2; Env fusion inh: 10; MT1-MMP act inh RFP: -3

How did C=CCn1c(-c2ccc(OC)cc2)nc2ccccc21 do in these assays?
Rce1 inhib: inactive; eIF4H FP inh: 3; CSC inhib: -13; MT1-MMP act inh: -8; PABP polyA inh: 0; MT1-MMP act inh RFP: 0

Results for O=C(NCc1ccco1)/C(=C/c1ccc(F)cc1)NC(=O)c1ccccc1 ?
eIF4H FP inh: -14; UUG fidelity: -37; CSC inhib: -10; MT1-MMP act inh: 1; PABP polyA inh: 2; Env fusion inh: -8; MT1-MMP act inh RFP: 3

How did CSc1ccc(/C=C/C(=O)c2c(O)cc(C)oc2=O)cc1 do in these assays?
Rce1 inhib: inactive; eIF4H FP inh: 49; UUG fidelity: -14; CSC inhib: -8; MT1-MMP act inh: -28; PABP polyA inh: 0; Env fusion inh: -63; MT1-MMP act inh RFP: 5

Results for CCOC(=O)c1c(CC(C)C)csc1/N=C/C1=C(O)CCCC1=O ?
Rce1 inhib: inactive; eIF4H FP inh: inconclusive; UUG fidelity: -6; MT1-MMP act inh: -20; PABP polyA inh: inconclusive; Env fusion inh: 8; MT1-MMP act inh RFP: 6

Results for Cc1cccc2nc(C(=O)Nc3cccc(C(=O)NC4CC4)c3)cn12 ?
UUG fidelity: -5; CSC inhib: 0; MT1-MMP act inh: 3; MT1-MMP act inh RFP: -1

How did O=C1C(C2=NC(C(=O)O)C3C(=O)N(c4ccccc4)C(=O)C23)=C(O)c2ccccc21 (centres undefined) do in these assays?
Rce1 inhib: inactive; eIF4H FP inh: 8; UUG fidelity: -18; CSC inhib: -2; MT1-MMP act inh: 4; PABP polyA inh: -2; Env fusion inh: -24; MT1-MMP act inh RFP: 3

How did Cc1ccccc1N/N=C/c1sc(=O)n(Cc2cccc(C(=O)O)c2)c1Cl do in these assays?
Rce1 inhib: inactive; eIF4H FP inh: 48; CSC inhib: 16; MT1-MMP act inh: 0; PABP polyA inh: 22; Env fusion inh: 4; MT1-MMP act inh RFP: -2

How did O=C(NC1CCCCC1)C(c1cccs1)N(C(=O)c1ccco1)c1ccc2c(c1)OCCO2 (centres undefined) do in these assays?
Rce1 inhib: inactive; eIF4H FP inh: -2; UUG fidelity: -32; CSC inhib: -3; MT1-MMP act inh: 2; PABP polyA inh: 5; MT1-MMP act inh RFP: 1

How did COc1ccc(S(=O)(=O)NCC(=O)N(CC(=O)NCC2CCCO2)c2ccccc2C)cc1 (centres undefined) do in these assays?
Rce1 inhib: inactive; eIF4H FP inh: -7; UUG fidelity: 3; MT1-MMP act inh: 6; PABP polyA inh: -7; MT1-MMP act inh RFP: 6

Results for CCc1c(C)[nH]c2c(C)cccc2c1=O ?
Rce1 inhib: inactive; eIF4H FP inh: 2; UUG fidelity: -19; CSC inhib: -12; MT1-MMP act inh: 7; PABP polyA inh: -5; MT1-MMP act inh RFP: -3

How did CCCc1cc(N2CCN(C(=O)c3ccco3)CC2)n2c(nc3ccccc32)c1C#N do in these assays?
Rce1 inhib: inactive; eIF4H FP inh: 9; UUG fidelity: -2; CSC inhib: -11; MT1-MMP act inh: 11; PABP polyA inh: -4; Env fusion inh: 8; MT1-MMP act inh RFP: -3

Results for O=C(O)CCn1c2ccccc2c2nc3ccccc3nc21 ?
Rce1 inhib: inactive; eIF4H FP inh: 2; UUG fidelity: -15; CSC inhib: -3; MT1-MMP act inh: 2; PABP polyA inh: 20; Env fusion inh: -4; MT1-MMP act inh RFP: 5

Results for O=C(O)CNC(=O)/C(=C\c1ccc2c(c1)OCO2)NC(=O)c1ccc(Br)cc1 ?
Rce1 inhib: inactive; eIF4H FP inh: -2; UUG fidelity: -10; CSC inhib: 2; MT1-MMP act inh: -2; PABP polyA inh: 5; Env fusion inh: 0; MT1-MMP act inh RFP: -4

Screening data: PubChem BioAssay, several laboratories
